Screening data from PubChem BioAssay.
miR-21 FLuc: miR-21 reporter, rising signal. HeLa miR-21 FLuc reporter, luciferase, 48 h. Potency, µM (top dose mostly 38.3 µM), without a hit: at the highest dose reporter change, positive = more light. 340,000 tested, under 10 active. AID 2288; active = well fitted rising curve with a large enough effect; inconclusive = small, poorly fitted or top-dose-only effect; inactive = no such curve, though single readings can be large or run the other way;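 further: % of control where 0% means no effect; miR-21 action dims this reporter so a rising signal means less miR-21 action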
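HeLa cells stably expressing CMV-driven firefly luciferase with a downstream miR-21 binding sequence, endogenously expressing miR-21, were treated with titrations (up to about 40uM final) for 48 hours at 37 degree Celsius. Luciferase luminescence was read after lysis.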
Rango release inh: inhibition of RanGTP-driven Rango-importin beta dissociation; O95149+P62826; Biochemical FRET Rango-importin beta, RanGTP-induced dissociation; Potency, µM (top dose mostly 46.1 µM), for the others: at the top dose activity change, negative = inhibition; actives 0.071% (n = 340,000); AID 540253; active means falling FRET ratio curve, often poorly fitted, with flat reads before Ran was added; inconclusive means other falling curves, or compound fluorescence or quenching; inactive means flat or rising ratio curve;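 further: potency means the concentration at half of the fitted maximal effect; % of control where 0% means no effect; nearly all actives have a fitted effect of over 45% in size; -100% = wells without RanGTP and RCC1; the record marks most hits as doubtful in a second field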
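Quantitative HTS using a FRET biosensor: 0.1 uM Rango, 0.25 uM importin beta, 0.6 uM Ran, 2 mM GTP, 0.2 uM RCC1 final, PBS with DTT, Tween-20 and BSA. Post-read taken 45 min after Ran addition.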
Rango complex inh: Rango-importin beta binding inhibition; actives 0.031% (n = 340,000); Q14974; Potency, µM (top dose mostly 92.2 µM), for inactives: at the top dose inhibition of complex formation; Rango CFP/YFP FRET sensor + importin beta, 45 min; AID 540263; active = rising FRET ratio curve, often small or poorly fitted; inconclusive = mostly compound fluorescence or quenching in the first reads; inactive = flat curves in all reads;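 further: potency means the concentration at half of the fitted maximal effect; 0% = DMSO wells and 100% = buffer wells lacking importin beta; nearly all actives have a fitted effect of over 15% in size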
Target sequence (Q14974 whole entry, looked up): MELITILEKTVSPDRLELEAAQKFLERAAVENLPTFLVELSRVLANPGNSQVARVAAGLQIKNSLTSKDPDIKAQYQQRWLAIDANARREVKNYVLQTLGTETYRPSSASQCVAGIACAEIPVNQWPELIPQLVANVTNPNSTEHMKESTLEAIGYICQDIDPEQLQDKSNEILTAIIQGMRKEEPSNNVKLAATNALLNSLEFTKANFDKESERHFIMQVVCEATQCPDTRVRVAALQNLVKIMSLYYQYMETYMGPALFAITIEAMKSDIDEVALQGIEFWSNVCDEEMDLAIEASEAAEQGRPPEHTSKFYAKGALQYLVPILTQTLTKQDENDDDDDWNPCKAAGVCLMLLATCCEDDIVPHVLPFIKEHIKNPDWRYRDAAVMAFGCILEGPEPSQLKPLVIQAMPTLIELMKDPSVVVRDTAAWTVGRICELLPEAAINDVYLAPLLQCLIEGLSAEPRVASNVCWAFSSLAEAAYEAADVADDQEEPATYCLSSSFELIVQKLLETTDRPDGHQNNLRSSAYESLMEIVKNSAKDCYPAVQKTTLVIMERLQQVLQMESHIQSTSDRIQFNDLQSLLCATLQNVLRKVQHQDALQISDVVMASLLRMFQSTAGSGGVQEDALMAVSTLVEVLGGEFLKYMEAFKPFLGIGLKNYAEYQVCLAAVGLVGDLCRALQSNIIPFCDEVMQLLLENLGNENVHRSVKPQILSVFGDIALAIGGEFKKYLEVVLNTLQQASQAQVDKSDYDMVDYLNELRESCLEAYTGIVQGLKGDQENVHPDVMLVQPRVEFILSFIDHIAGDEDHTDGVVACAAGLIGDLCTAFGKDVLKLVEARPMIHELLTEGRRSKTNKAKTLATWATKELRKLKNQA
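FRET biosensor Rango (snurportin 1 IBB between N-terminal EYFP and C-terminal Cerulean), 50 nM in PBS/1 mM DTT/0.02% Tween-20/0.1% BSA, preincubated 5 min RT with compound; 0.125 microM importin beta added, 45 min RT, CFP/YFP FRET ratio read.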
GLA inh pH 4.5: inhibitors of human alpha-galactosidase A at pH 4.5; P06280; purified enzyme, 4-MU-alpha-Gal fluorescence, pH 4.5; activity change, negative = inhibition, % at 105 µM; 230,000 tested, under 10 active; inconclusive = small, poorly fitted or top-dose-only inhibition, or a rising curve; inactive = flat fitted curve, though single readings scatter; no compound was filed as active;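 further: 0% = full activity with enzyme and -100% = basal without enzyme; dose as in the result columns while the protocol names 77 µM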
Starred values were filed as active, the others as inactive; ? = inconclusive; / = no result given; & = joins results of further samples; [ ] = another dose, or the depositor's remark. Only part of the results is shown; rates above refer to the full screens.

Preview:
miR-21 FLuc	Rango release inh	Rango complex inh	GLA inh pH 4.5	molecule
-3%	2%	5.0%	-16	COc1ccc(-c2csc(N3CCN(C(=O)c4ccccc4)CC3)n2)cc1
0%	10%	-3.1%	-3	CC(C(=O)Nc1ccc(S(N)(=O)=O)cc1)N1CCc2ccccc21 (configuration not stated)
-2%	-6%	1.9%	11	O=c1oc(-c2cccc(Cl)c2)nc2c1cnn2-c1ccccc1
-11%	-2%	-4.7%	-2	COc1ccc(NC(=O)CSc2nnc(-c3ccccc3C)n2N)cc1
/	6%	4.1%	/	CC(=O)Nc1ccc(NC(=O)C(C)Sc2nc3ccccc3c(=O)n2Cc2ccco2)cc1 (configuration not stated)

Results, previewed entries included:
miR-21 FLuc	Rango release inh	Rango complex inh	GLA inh pH 4.5	molecule
-3%	2%	5.0%	-16	COc1ccc(-c2csc(N3CCN(C(=O)c4ccccc4)CC3)n2)cc1
0%	10%	-3.1%	-3	CC(C(=O)Nc1ccc(S(N)(=O)=O)cc1)N1CCc2ccccc21 (configuration not stated)
-2%	-6%	1.9%	11	O=c1oc(-c2cccc(Cl)c2)nc2c1cnn2-c1ccccc1
-11%	-2%	-4.7%	-2	COc1ccc(NC(=O)CSc2nnc(-c3ccccc3C)n2N)cc1
/	6%	4.1%	/	CC(=O)Nc1ccc(NC(=O)C(C)Sc2nc3ccccc3c(=O)n2Cc2ccco2)cc1 (configuration not stated)
-7%	-3%	-0.1%	8	CCOC(=O)NN1C(=O)c2ccccc2NC1c1ccccc1O (configuration not stated)
6%	9%	0.8%	/	COc1ccc2c(c1)c1nnc(SCC(=O)NC3CC3)nc1n2C
-20%	-5%	2.6%	-6	CCOc1ccc(-c2nc(CN(Cc3ccccc3)C[C@@H]3CCC(=O)N3)c(C)o2)cc1
-5%	-22%	?	0	Cc1ccc(S(=O)(=O)NN=C2CCC(C(C)(C)C)CC2)cc1[N+](=O)[O-] (configuration not stated)
-1%	0%	0.7%	1	CC(=O)Nc1cccc(NC(=O)C(F)(F)F)c1
-4%	2%	0.6%	-3	CC(C)(C)NC(=O)C(=O)NN=C1CCCCCCC1
2%	14%	-1.6%	/	O=C1CC(N2CCN(c3ccc(F)cc3)CC2)C(=O)N1Cc1ccccc1 (configuration not stated)
-19%	-15%	0.4%	-3	CCn1c(=NC(=O)c2ccc(N3C(=O)CCC3=O)cc2)sc2c(OC)ccc(OC)c21
1%	7%	-0.1%	-6	COc1cc(CNc2ccc(O)cc2)cc(Br)c1OCc1ccccc1
-59%	-1%	-2.0%	/	COc1ccc(C(=O)CSc2nccn2C)cc1
/	-7%	-1.1%	/	COc1ccc([C@H]2CC(=O)C=C(c3ccc(Oc4ccccc4)cc3)C2)cc1OC
-51%	16%	-2.0%	-2	NNC(=O)c1ccc2nc(-c3ccc(Br)cc3)cn2c1
-6%	22%	-0.2%	1	CN(C)c1ncc(S(=O)(=O)c2ccccc2)c(-c2ccccc2Cl)n1
-2%	-4%	-0.3%	-10	O=S(=O)(Nc1nc2ccccc2s1)c1ccc(Br)s1
-37%	-16%	0.7%	15	CCOC(=O)N1CCN(Cc2nc(CC3CC3)no2)CC1

(further entries)
miR-21 FLuc	Rango release inh	Rango complex inh	GLA inh pH 4.5	molecule
-39%	2%	0.8%	8	CN(c1ccc(C(=O)NCCSCc2ccco2)cc1)S(C)(=O)=O
-31%	1%	4.7%	-5	COC(=O)CCN1CCc2cc(N=Nc3ccc([N+](=O)[O-])cc3)ccc21
-37%	1%	0.4%	/	Cc1c(C(=O)NCCc2ccccc2)oc2ccccc12
-1%	-7%	-2.2%	/	COc1cc2nc(NC(=O)c3ccc(F)cc3Cl)sc(=O)c2cc1OC
-2%	-4%	-0.2%	2	O=C1C=C(c2cccs2)CC(c2cccs2)C1n1cnc([N+](=O)[O-])c1 (configuration not stated)
-8%	7%	0.1%	11	CCOc1ccc(C(=O)Nc2ccccc2-c2ccccc2)cc1Cl
-71%	1%	-0.5%	/	Cc1c(C(=O)N(CCO)Cc2ccccc2)oc2c(F)cccc12
/	-27%	?	/	O=C(O)c1cccc2cccc(-c3c4ccc(=O)c(O)c-4oc4c(O)c(O)ccc34)c12
-1%	6%	2.7%	5	O=C(NCC1CCCO1)/C(=C\c1cccs1)NC(=O)c1ccccc1 (configuration not stated)
9%	3%	-4.4%	-16	CC(=O)c1c(C)cc(C)c(CSc2nc(C)cc(=O)[nH]2)c1C
/	3%	1.8%	/	CCN1C(=O)[C@@H]2[C@@H](c3ccc(-c4ccc(F)cc4)cc3)N3CCCC[C@@]3(C(=O)OC)[C@@H]2C1=O
-3%	2%	-4.1%	4	Cc1ccc2cc(S(=O)(=O)NCCC(=O)O)ccc2c1
-3%	2%	-0.8%	4	COc1ccc(N=C2CCCN2CC(N)=O)cc1
/	?	?	/	Oc1ccc(C=NNC(=S)Nc2ccc(F)cc2)c(O)c1
1%	?	?	-6	CC(C)CCN(CCC(C)C)CC(O)Cn1c2ccccc2c(=O)c2ccccc21 (configuration not stated)
-24%	-9%	0.3%	-8	CN(C)c1cccc(-c2nnc(SCCCC#N)o2)c1
-51%	4%	0.1%	/	CCc1ccc(NC(=O)NCCCN2CCCC2=O)cc1
-10%	?	?	-14	COc1ccc(-n2c(C)cc(/C=C3\SC(=S)NC3=O)c2C)cc1
-2%	2%	-0.7%	2	CCc1cccc(C)c1NC(=O)CSc1nc2ccc(N3C(=O)c4ccccc4C3=O)cc2s1
-4%	31%	-2.0%	-12	Cc1ccc(C2CC(C(F)(F)F)n3ncc(C(=O)NCc4ccco4)c3N2)cc1 (configuration not stated)

More results
miR-21 FLuc	Rango release inh	Rango complex inh	GLA inh pH 4.5	molecule
2%	8%	-2.8%	/	CCn1cc(CCC(=O)NCc2cccc(OC)c2OC)c2ccccc21
-8%	15%	-5.5%	-4	O=C(NCc1ccccn1)c1cc(-n2cnnc2)ccc1Cl
-3%	3%	-0.1%	-8	CCCCNC(=S)N(C)/N=C/c1c(F)c(F)c(F)c(F)c1F
2%	4%	0.1%	5	COC(C[C@@H](O)CC(=O)[C@H](C)OCc1ccccc1)OC
-12%	-3%	1.2%	1	C=CCOc1c2ccc(C(=O)NCc3ccc(C)cc3)cc2nn1C
-13%	5%	1.7%	-10	CCOC(=O)c1c(C(C)(C)C)oc2ccc(OCC#N)cc12
/	-7%	?	/	N#CC(=C(O)COC(=O)Cc1c[nH]c2ccccc12)c1nc2ccccc2[nH]1
5%	-3%	3.1%	/	O=C(COc1ccc(Br)cc1)NNC(=S)NCc1ccccc1
/	-2%	-0.4%	/	O=C(COC(=O)Cc1cccc(C(F)(F)F)c1)NC(=O)NC1CCCC1
-9%	-9%	-2.8%	3	Cc1ccccc1-n1c(Cn2c(=O)sc3ccccc32)nnc1SCC(=O)N1CCCC1
1%	20%	0.3%	/	Cc1cccc(N2CCN(S(=O)(=O)c3ccc(-c4cc(C)no4)s3)CC2C)c1 (configuration not stated)
-28%	?	?	?	O=c1oc2c(CN3CCCCC3)c(O)ccc2c2c1CCCCC2
/	6%	1.5%	/	COc1ccc(C(=O)NC(=O)COC(=O)C2CC2C)cc1 (configuration not stated)
/	-5%	0.0%	/	CC(C)=NNc1ncnc2nc[nH]c12
14%	-19%	-2.1%	-11	O=C(C/C(=N\NC(=O)c1ccccc1Br)C(F)(F)F)c1cccs1
0%	0%	-2.5%	/	CC1(C)CC(NC(=O)c2cc(Cl)ccc2Cl)CC(C)(C)N1
/	28%	2.9%	/	COc1ccc(C(=O)NC2CCSc3ccccc32)cc1S(=O)(=O)N1CCOCC1 (configuration not stated)
-17%	-6%	-0.4%	-8	COc1c(F)c(F)c(C(=O)Nc2ccc(NC(=O)c3ccco3)cc2)c(F)c1F
-60%	-5%	2.5%	-1	O=C(NCCc1ccccc1)Nc1ccc(Cl)cc1
5%	-4%	3.3%	/	COc1ccc(NC(=O)C2CCN(S(=O)(=O)c3ccc4c(c3)CC(C)N4C(C)=O)CC2)cc1OC (configuration not stated)

More structures:
miR-21 FLuc	Rango release inh	Rango complex inh	GLA inh pH 4.5	molecule
/	-20%	-4.4%	/	Cc1cc(C(=O)OCC(=O)N2CCC(c3ccccc3)=N2)ccc1[N+](=O)[O-]
-1%	-2%	-3.5%	1	C=CCOc1cccc(C2c3c(oc4ccc(F)cc4c3=O)C(=O)N2CCCN2CCOCC2)c1 (configuration not stated)
-40%	11%	-0.4%	-7	Cc1ccc(COc2ccc(/C=N/NC(=O)CN3CCCCC3)cc2)cc1
-1%	-12%	0.7%	3	COc1ccc([N+](=O)[O-])cc1N(CC(=O)NCCSc1ccccc1)S(C)(=O)=O
0%	-5%	0.5%	3	COCCNS(=O)(=O)c1cc(OC)ccc1OC
1%	20%	3.6%	5[21.1 µM]	Cc1ccccc1NC(=S)N(Cc1ccco1)C(C)c1ccccn1 (configuration not stated)
-41%	-15%	0.6%	/	Cc1nc(Nc2ccc(Cl)cc2)c(C#N)c(=O)[nH]1
/	-10%	-1.5%	/	O=C(N[C@H](CO)Cc1ccccc1)c1ccco1
-1%	?	?	6	CC(C)N1CCc2c(sc(NC(=O)CN3C(=O)c4ccccc4C3=O)c2C(N)=O)C1
-3%	19%	3.6%	-3	COCC(C)NC(=O)c1cc2cccc([N+](=O)[O-])c2[nH]1 (configuration not stated)
-10%	10%	-1.5%	-4	CCC(C)(C)NC(=O)C(c1ccncc1)N(Cc1cccs1)C(=O)Cn1nnc2ccccc21 (configuration not stated)
-12%	11%	4.4%	/	COc1ccc(-c2noc(CN(C)C(=O)c3ccoc3C)n2)cc1
-38%&-14%	?	?	1	COC(=O)C(C)n1nnc2sc(-c3ccccc3)cc2c1=O (configuration not stated)
-28%	22%	0.1%	2	CCOC(=O)Cc1cnc(NC(=O)c2ccccc2)s1
/	-4%	0.5%	/	Cc1ccc(S(=O)(=O)Nc2cccc(C(=O)NCC3(N4CCCCC4)CCCCC3)c2)cc1F
17%	3%	5.1%	-5	Cc1cc(NC(=O)CCC(=O)N(c2ccccc2)C2(C(=O)NC3CCCCC3)CCCC2)no1
-7%	13%	-1.6%	-2	Cc1ccc(S(=O)(=O)N(CC(=O)Nc2cccc([N+](=O)[O-])c2)Cc2ccc(Cl)cc2)cc1
7%	-3%	1.6%	2	Cc1ccc(CNc2ncnc3cc(Cl)ccc23)o1
2%	-3%	-1.2%	/	CC(C)C(=O)N1CCN(c2ccccc2NC(=O)COc2ccc(C3CCCCC3)cc2)CC1
-1%	-13%	2.2%	/	CC1(c2ccccc2)CC(C)(C)N(C(N)=O)c2ccccc21 (configuration not stated)

(more compounds)
miR-21 FLuc	Rango release inh	Rango complex inh	GLA inh pH 4.5	molecule
-9%	-19%	0.1%	0	c1ccc2c(CN3CCCCC3)csc2c1
1%	11%	1.3%	/	Cc1ccc(S(=O)(=O)N2CC(C)N(S(C)(=O)=O)C2)cc1 (configuration not stated)
16%	-6%	-0.7%	5	O=C(NC1CCCCC1)c1cc(Cl)ccc1[N+](=O)[O-]
/	8%	-3.3%	/	Clc1nssc1=Nc1nncs1
0%	-14%	?	9	CSc1n[nH]c2nc3c(c(=O)n12)C1(CCCCC1)Cc1ccccc1-3
-5%	?	1.8%	3	Cc1ccc(C2=NN(CC(=O)NCc3ccccn3)C(=O)CC2)cc1
-4%	0%	-0.8%	/	COc1ccc(NC(=O)c2ccco2)c2ccccc12
-8%	-5%	-2.7%	-19	Cc1cc(C)c(Cn2cnc(-c3ccc([N+](=O)[O-])cc3)c2)c(C)c1
/	20%	-2.8%	/	COc1cccc(CC(=O)OCC(=O)NC(Cc2ccccc2)C(C)=O)c1 (configuration not stated)
-6%	1%	-1.4%	2	Cc1ccc(C(=O)O)cc1NC(=O)CN1C(=O)C2C3c4ccccc4C(Br)(c4ccccc43)C2C1=O (configuration not stated)
0%	-8%	-3.9%	-6	CC(C)(C)C1=Nn2c(nnc2-c2ccccn2)SC1
-30%	2%	0.0%	-4	CCOc1ccc(NCc2nc3ccccc3n2CCOc2ccccc2)cc1
-4%	-29%	?	7	O=c1nc(-c2ccccc2)c2cc(Cl)ccc2[nH]1
-4%	-4%	-0.5%	9	CCCCc1cc(=O)oc2cc(OCC(=O)N3CCc4ccccc43)ccc12
23%	0%	-2.1%	0	CC(NC(=O)c1ccco1)C(c1cccs1)N1CCN(c2ccc(F)cc2)CC1 (configuration not stated)
